Compound activity as filed in PubChem.
PINK1 expr mod: PINK1 expression modulation | PINK1 immunofluorescence, high-content cytometry, 24 h | Potency, µM (top dose mostly 76.6 µM), for inactives: top-dose activation (PINK1 increase), usual class: activators | actives 0.2% (n = 410,000); active = well fitted activation curve with a large enough effect; inconclusive = small, poorly fitted or top-dose-only effect; inactive = flat fitted curve, though single readings scatter; cell line not stated here;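 also: potency is read from the fitted curve at half-maximal effect; % of control where 0% means no effect; nearly all actives have a fitted effect of over 65% in size; a mitochondrial uncoupler was the plate control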
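PINK1 protein, normally rapidly degraded, was detected by immunofluorescence after 24 hour compound treatment of a stable cell line. Titration data (5 concentrations) came from laser-scanning cytometry, with CCCP-treated wells as controls.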
Six1-Eya2 blk: inhibitors of human Six1/Eya2 interaction; Q15475+O00167; AlphaScreen GST-Six1/His-Eya2 binding, biochemical; hits give low values; control for the full effect not named in the record; activity change, % (concentration not given with the values); actives 0.56% (n = 360,000); AID 651725; in the data active = activity change below about -65%; inconclusive = about -30% to -65%; inactive = above about -30%; also: % is scaled to controls: 0 for no effect and ±100 for the full control effect
Target sequence (O00167 whole entry, looked up): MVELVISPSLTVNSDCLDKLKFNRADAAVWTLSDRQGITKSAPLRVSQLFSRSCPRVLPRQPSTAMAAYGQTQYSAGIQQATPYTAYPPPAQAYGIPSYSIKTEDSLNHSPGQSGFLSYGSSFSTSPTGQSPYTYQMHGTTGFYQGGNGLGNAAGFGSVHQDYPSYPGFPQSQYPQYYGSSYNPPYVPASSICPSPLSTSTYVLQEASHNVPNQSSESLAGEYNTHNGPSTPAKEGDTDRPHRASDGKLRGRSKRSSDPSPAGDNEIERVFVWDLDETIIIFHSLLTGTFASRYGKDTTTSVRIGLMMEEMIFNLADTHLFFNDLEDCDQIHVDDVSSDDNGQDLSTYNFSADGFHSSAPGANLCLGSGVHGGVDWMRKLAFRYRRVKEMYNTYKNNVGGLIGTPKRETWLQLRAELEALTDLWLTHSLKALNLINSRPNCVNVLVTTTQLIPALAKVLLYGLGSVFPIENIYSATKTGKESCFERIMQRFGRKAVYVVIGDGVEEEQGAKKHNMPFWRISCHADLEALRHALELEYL
Target sequence (Q15475 whole entry, looked up): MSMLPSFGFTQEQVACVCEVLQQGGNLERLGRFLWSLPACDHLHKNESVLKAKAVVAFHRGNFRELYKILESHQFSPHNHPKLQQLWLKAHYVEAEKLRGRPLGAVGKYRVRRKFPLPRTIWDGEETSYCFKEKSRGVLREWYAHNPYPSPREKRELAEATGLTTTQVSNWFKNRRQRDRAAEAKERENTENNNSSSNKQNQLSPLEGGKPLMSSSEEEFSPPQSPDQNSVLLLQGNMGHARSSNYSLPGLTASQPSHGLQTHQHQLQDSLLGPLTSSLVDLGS
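AlphaScreen with GST-Six1 and His-Eya2 (5X mix: 250 nM and 500 nM), glutathione donor and nickel acceptor beads; buffer 50 mM Tris pH 8.0, 300 mM NaCl, 1 mM TCEP; 1 h at 37 C in the dark.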
TRPML1 blocker: inhibitors of human TRPML1 channel; activity change, negative = inhibition, % (test concentration not listed); Q9GZU1; TRPML1-inducible cells, Ca2+ dye fluorescence, FDSS; hits give low values; inhibition of EC80 agonist-evoked calcium signal; actives 0.02% (n = 390,000); AID 624415; in the data active means activity change below about -50%; inconclusive means about -30% to -50%; inactive means above about -30%;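 also: stimulus is agonist 54-4 at its EC80 concentration; % is scaled to controls: 0 for no effect and ±100 for the full control effect; compound concentration not given in the record; the text of the record puts the active cut at -80%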
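Calcium fluorescence in TRPML1-DL cells induced overnight with Tet: a 110 s read after compound pin addition, then a 110 s antagonist read after challenge with 54-4 at 4 uM final (EC80).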
D2 potentiator: human D2 receptor positive allosteric modulation; DiscoveRx D2 beta-arrestin cells, luminescence, 90 min; 100% = 57 uM dopamine signal; P14416; potentiation, % (no concentration beside the values); AID 624464; actives 0.23% (n = 360,000); active = potentiation of 50% or more; inconclusive = 30% to 50%; inactive = 30% or less;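 also: compound concentration not given in the record; tested on top of an EC20 dose of dopamine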
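D2 cells co-treated with compound plus 50 nM dopamine (EC20) for 90 min at 37 deg C to detect potentiation. Beta-arrestin recruitment was read as enzyme-fragment luminescence after 1 h at ambient temperature. Full response was set by 57 uM dopamine.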
D2 ag: activates the human D2 dopamine receptor | actives 0.084% (n = 360,000) | DiscoveRx PathHunter D2 beta-arrestin, luminescence, 90 min; 100% = 57 uM dopamine signal | P14416 | activation, % (test concentration not listed) | AID 624465; in the data active = activation above about 40%; inconclusive = about 15% to 40%; inactive = below about 15%; also: compound concentration not given in the record; the text of the record calls up to 30% inactive
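Agonist mode: compounds alone added to overnight-plated D2 PathHunter cells for 90 min at 37 C, with 57 uM final dopamine (EC100) defining full response. Beta-arrestin recruitment detected by chemiluminescent reagent, read after 1 h at ambient temperature.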
TRPML1 ag: agonists of human TRPML1 channel; activation, % (no concentration beside the values); actives 0.12% (n = 410,000); Q9GZU1; AID 624414; TRPML1-expressing cells, Ca2+ dye fluorescence, FDSS; host cell line not named in the record; reference of the full effect not given here; in the data active = activation above about 50%; inconclusive = about 30% to 50%; inactive = below about 30%; also: 0% is about no effect; the text of the record puts the active cut at 80%
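Calcium fluorescence on an FDSS kinetic reader gave the read-out. Tet-induced TRPML1-DL cells were plated overnight, dye-loaded (Ca8 with quencher, 45-90 min, room temperature, dark), then read 110 s after compound addition, and again 110 s after 4uM final 54-4 (EC80).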
* marks the source's active call; other numbers are inactive results; ? = inconclusive; . = not tested or not shown; & = joins results of further samples; [ ] = another dose, or the depositor's remark.

| Molecule | PINK1 expr mod | Six1-Eya2 blk | TRPML1 blocker | D2 potentiator | D2 ag | TRPML1 ag |
| --- | --- | --- | --- | --- | --- | --- |
| C/C(=N\OCc1ccc(C#N)cc1)c1ccc(S(=O)(=O)N(C)C)cc1 | -1.9% | 0 | 6 | 2 | 8.5 | 0.2 |
| Cc1ccc(Cn2c(CNS(=O)(=O)c3cccc([N+](=O)[O-])c3)nc3cccnc32)cc1 | 0.2% | . | -2 | . | . | 1.7 |
| CCN(Cc1ccncc1)C(=S)Nc1ccc(Cl)cc1 | 0.2% | 0 | 3 | -10 | 1.1 | -0.1 |
| CC1=C(C(=O)Nc2ccccc2C(=O)N2CCN(c3ccccc3)CC2)SCCO1 | -0.1% | -10 | 0 | -7 | -11 | -0.7 |
| COCCCNC(=O)CC1C[C@H](C(=O)N(C(C)C)C(C)C)[C@@]2(C)c3[nH]c4ccc(OC)cc4c3CCN2C1=O (some centres not stated) | 0.6% | 6 | 19 | -4 | -1.4 | -0.5 |
| Cc1nnc(SCc2cc(=O)[nH]c(Nc3nc(C)c4cc(C)c(C)cc4n3)n2)s1 | 8.1% | 9 | 0 | -3 | -6.8 | -0.5 |
| COc1cccc(C(=O)N/N=c2\sc3ccccc3n2C)c1 | -0.4% | -3 | -9 | -32 | -2.6 | 1.3 |
| CN(C)/N=C/c1ccc(/C=N/NC(N)=S)o1 | 1.0% | -2 | -15 | 1 | 5.3 | -0.2 |
| Cc1ccc2c(c1)N(CC(=O)NCC1CCCO1)C(=O)CO2 (configuration not stated) | 0.1% | 3 | 30 | 1 | 4.5 | 0.1 |
| c1ccc(-n2ncc3c(NCc4ccc5c(c4)OCO5)ncnc32)cc1 | 1.7%[38.3 µM] | -4 | -6 | -1 | 2.7 | -0.3 |
| CCOc1ccc(NC(=S)N2CCc3cc(OC)c(OC)cc3C2COc2ccc3c(C)cc(=O)oc3c2)cc1 (configuration not stated) | 1.8% | -1 | -20 | -20 | -1.0 | 1.1 |
| CCOc1ccc(NC(=O)CCN2CCN(c3ccccc3OC)CC2)cc1 | 0.8% | -7 | -10 | -31 | 0.6 | -0.4 |
| COc1cc(CNC2CCCc3ccccc32)cc(OC)c1OC (configuration not stated) | 2.0% | 5 | -13 | -16 | 2.4 | -0.9 |
| COP(=O)(OC)c1nc(-c2cccc3ccccc23)oc1N1CCOCC1 | -1.6% | -14 | -6 | -9 | -5.7 | -0.9 |
| O=C(CSc1nc(=O)n(Cc2cccnc2)c2c1CCC2)Nc1ccc(F)cc1F | 2.7% | . | 9 | . | . | -0.4 |
| CC(NS(=O)(=O)/C=C/c1ccccc1)C(=O)NCCc1ccc(S(N)(=O)=O)cc1 (configuration not stated) | -1.6% | 3 | 5 | 6 | 0.8 | 0.1 |
| Nc1cc(N)nc(SCC(=O)NCC2CCCO2)n1 (configuration not stated) | 0.0% | -1 | -4 | -5 | -2.7 | -0.1 |
| Cc1nc2nc(C)c(CCC(=O)NC(C)c3ccc4c(c3)OCCO4)c(C)n2n1 (configuration not stated) | -0.3% | 3 | 23 | 1 | -2.9 | -0.9 |
| Nc1cc(C(=O)O)ccc1N1CCCCC1 | -0.8% | 1 | -15 | -7 | -1.0 | -0.7 |
| CC(C)N1CCN(Cc2cccn2-c2cccnc2)CC1CCO (configuration not stated) | 0.8% | -2 | -17 | -9 | -3.7 | -0.3 |
| Nc1ccc(N2CCN(c3cccc(Cl)c3)CC2)cc1 | -2.3% | ? | -1 | 17 | 0.6 | -0.5 |
| N=c1c(-c2nc3ccccc3[nH]2)cc(C(=O)c2ccco2)nn1-c1ccccc1 | 3.5% | -20 | 9 | -4 | -4.6 | 12 |
| COc1ccccc1Nc1ncnc2c1nc1n2CCCC1 | 0.3% | . | -7 | . | . | -0.5 |
| CSc1ncccc1C(=O)OCC(=O)NC1CCS(=O)(=O)C1 (configuration not stated) | 1.1% | 0 | -4 | 13 | -3.5 | -1.5 |
| CC1=CCC2C(=O)N(c3nc4ccccc4n3C)C(=O)C2C1 (configuration not stated) | -1.1% | -11 | 17 | 1 | -1.6 | 0.9 |
| CCCC(OC(=O)CC1Sc2ccccc2NC1=O)C(=O)NCc1ccco1 (configuration not stated) | . | -8 | -3 | -4 | -0.9 | -0.1 |
| COCCn1c(SCC(=O)N2CCOCC2)nnc1-c1ccco1 | 1.1% | -1 | 3 | -2 | -3.9 | 0.2 |
| Cc1ccccc1OCCC(=O)OCC(=O)NCCNC(=O)COC(=O)CCOc1ccccc1C | -0.4% | 6 | -9 | 0 | -5.5 | 1.0 |
| O=C(Nc1cc(C(F)(F)F)ccc1N1CCCC1)C1CCCO1 (configuration not stated) | 2.5% | 12 | -7 | -2 | -0.4 | -1.3 |
| Cc1nc2scc(-c3cccs3)c2c(=O)n1N | 1.0% | 2 | -4 | -2 | -4.2 | -0.4 |
| CC1=C(C(N)=O)C(c2ccccn2)n2nc(SCc3ccccc3)nc2N1 (configuration not stated) | 2.3% | -1 | 2 | -7 | 0.3 | -0.8 |
| CC(CN1CCCCC1)OC(=O)/C=C/c1ccccc1 (configuration not stated) | 1.7% | 6 | -7 | -4 | -0.9 | 0.6 |
| COc1cc(/C=N\NC(=O)c2ccc(=O)[nH]n2)cc(OC)c1OC | 1.0% | -3 | 7 | -14 | -0.8 | 0.9 |
| COc1ccc(NC(=S)NCCc2c(C)[nH]c3ccc(OC)cc23)cc1 | 0.6% | -22 | -11 | -9 | 1.7 | -0.5 |
| CCOC(=O)c1c(NC(=S)Nc2ccccc2)sc(C)c1C | 0.2%[38.3 µM] | -3 | -2 | -19 | -2.4 | -0.5 |
| O=C(c1ccccc1F)N1CCN(c2cccc(C(F)(F)F)c2)CC1 | -0.5%[38.3 µM] | 1 | -3 | 9 | -1.2 | 1.9 |
| Cc1cc(C)nc(NS(=O)(=O)c2ccc(N/C=C\C(=O)c3ccc(Cl)cc3)cc2)n1 | -0.8%[38.3 µM] | 0 | -6 | -2 | -2.6 | -0.3 |
| C#CCOCCOCCOCCNc1nc(N2CCN(C(=O)CCCCCCCCCCNC(=O)[C@H](CCCCN)n3cc(C)nn3)CC2)nc(N2CCN(C(=O)CCCCCCCCCCNC(=O)[C@H](CCCCN)n3cc(CCCC(=O)O)nn3)CC2)n1 | 0.3% | 0 | 1 | -4 | -1.7 | 0.3 |
| COC(=O)c1c(NC(=O)c2ccccc2N(C)S(=O)(=O)c2ccccc2)sc2c1CCCC2 | 2.6% | 5 | 65 | -14 | -3.8 | 0.2 |
| Cc1ccc(-n2c(SCC(=O)Nc3ccc(Cl)cc3)nc(O)cc2=O)cc1 | 5.8% | -1 | 17 | -4 | -2.2 | 0.3 |
| NC(=O)c1cc2cc(Br)ccc2oc1=NCc1ccccc1 | 7.1% | 2 | -13 | -22 | -6.6 | 0.0 |
| CC(=O)N1CCN(C(=O)c2ccc(Cl)c(S(=O)(=O)N3CC(C)OC(C)C3)c2)CC1 (configuration not stated) | 0.3% | 14 | 2 | 1 | -2.2 | 0.2 |
| OC(c1ccc(F)cc1)c1nc(-c2ccncc2)cs1 (configuration not stated) | 3.3% | -4 | . | -3 | 7.5 | -0.9 |
| O=C(NCC1CCCN(C(=O)CN2CCCCC2)C1)c1ccccc1Cl (configuration not stated) | 4.0% | 7 | -7 | 2 | -0.5 | -0.7 |
| CCOC(=O)C(=NCCCN(C)C)NNc1ccc(Br)cc1 | 0.1% | 6 | 9 | -11 | 5.3 | -0.3 |
| CCOC(=O)C1(C)NC(c2ccccc2F)C2C(=O)N(c3cccc(C(C)=O)c3)C(=O)C21 (configuration not stated) | -2.8% | 9 | -8 | 2 | -0.6 | 3.0 |
| O=C(Nc1ncccc1Cl)c1ccccc1F | -1.5% | 0 | -2 | -17 | 1.4 | 2.2 |
| O=C(O)c1c2c(nc3ccc(S(=O)(=O)N4CCC(C(=O)NCc5ccc(Cl)cc5)CC4)cc13)CCCC2 | -1.0%&0.2% | ? | 1&3 | -3 | -8.0 | -0.1&-0.2 |
| OCC[C@H]1C[C@H](O)[C@@H](O)[C@@]2(OCCCc3ccccc32)O1 | 1.1% | 4 | 6 | -2 | -3.0 | 0.1 |
| CCCC(C1=C(O)CC(C)(C)CC1=O)C1C(=O)CC(C)(C)CC1=O (configuration not stated) | -0.2% | -3 | 6 | 2 | -3.0 | -0.9 |
| COC(=O)c1cc(Cl)cc(Cl)c1OS(=O)(=O)N(C)C | 2.6% | 8 | 0 | -7 | -1.7 | 0.1 |
| CCN(CC)S(=O)(=O)c1ccc(NN=C2CCN(C)CC2)c([N+](=O)[O-])c1 | 0.8% | -11 | 15 | -3 | -3.7 | 0.0 |
| Cc1cc(C)c(S(=O)(=O)c2cccc(C)c2C)c(=O)[nH]1 | 0.6% | 9 | -11 | -4 | -0.8 | -1.3 |
| Cc1nn(Cc2ccccc2)c(C)c1CNC(=O)[C@H](C)N=C1NS(=O)(=O)c2ccccc21 | 0.6% | 0 | -14 | -1 | 3.3 | 1.2 |
| CCOc1ccccc1NC(=O)C1CCCN1S(=O)(=O)c1ccc2c(c1)C(C)(C)C(=O)N2C (configuration not stated) | 0.5% | . | 17 | . | . | 0.0 |
| COc1cc(C)c(Br)cc1S(=O)(=O)NCc1ccncc1 | -0.5% | 4 | 25 | -5 | 5.7 | 1.8 |
| CCn1c(C(=O)N2CCCC(C(=O)NCCCc3ccccc3)C2)cc2sccc21 (configuration not stated) | . | -1 | -2 | -15 | 2.1 | 2.5 |

Part of the list above, with each value named.
> CCCC(C1=C(O)CC(C)(C)CC1=O)C1C(=O)CC(C)(C)CC1=O (configuration not stated)
  PINK1 expr mod: -0.2%
  Six1-Eya2 blk: -3
  TRPML1 blocker: 6
  D2 potentiator: 2
  D2 ag: -3.0
  TRPML1 ag: -0.9
> COC(=O)c1cc(Cl)cc(Cl)c1OS(=O)(=O)N(C)C
  PINK1 expr mod: 2.6%
  Six1-Eya2 blk: 8
  TRPML1 blocker: 0
  D2 potentiator: -7
  D2 ag: -1.7
  TRPML1 ag: 0.1
> CCN(CC)S(=O)(=O)c1ccc(NN=C2CCN(C)CC2)c([N+](=O)[O-])c1
  PINK1 expr mod: 0.8%
  Six1-Eya2 blk: -11
  TRPML1 blocker: 15
  D2 potentiator: -3
  D2 ag: -3.7
  TRPML1 ag: 0.0
> Cc1cc(C)c(S(=O)(=O)c2cccc(C)c2C)c(=O)[nH]1
  PINK1 expr mod: 0.6%
  Six1-Eya2 blk: 9
  TRPML1 blocker: -11
  D2 potentiator: -4
  D2 ag: -0.8
  TRPML1 ag: -1.3

Outcome played no part in choosing rows (roughly 1% active in at least one column).
